High-throughput results deposited in PubChem BioAssay by several laboratories.
Ecoli growth: E. coli growth inhibition | Escherichia coli growth, OD600, 23 h; active compounds read low | OD600 absorbance (concentration not given with the values) | 330,000 tested, 0.21% active | AID 1053175;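 active = OD600 absorbance below the run mean of sample wells minus 3.6 SD, in any replicate, cut at about 0.56 in these data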;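 note: stock transfer was 300 nL into about 60 µL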
A1 inh: inhibitors of the anti-apoptotic protein A1, read as caspase activation; MEF A1-2A-BIM cells, Caspase-Glo 3/7 luminescence, 3 h; percent of clofoctol response, vehicle zero; caspase activation, % (test concentration not listed); 330,000 tested, 0.066% active; AID 2462;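 active = over half of replicate activation scores above 10%, or exactly half above 10 with the replicate mean above 10; inconclusive = replicate mean below 10 yet half the replicates above 10; inactive = over half of replicates below 10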;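 note: wells of about 30 µL received 50 nL stock; many hits fall short of the cut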
B2AR ag: activates human beta-2 adrenergic receptor causing internalization | Am2.2-beta2AR cells, FAP receptor internalization, flow cytometry; reference of the scale not given here | response, % (test concentration not listed) | 340,000 tested, 0.43% active;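 active = response above a set limit, near 3 SD of response in nonfluorescent compounds, cut at about 42% in these data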;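 note: stock transfer was 100 nL into about 11 µL; a reference agonist was the positive control; negative values mostly stem from fluorescent compounds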
Vif TR-FRET: HIV-1 Vif–A3G interaction blockers – biochemical, TR-FRET, GST-Vif 1-94, biotin-A3G peptide, dose response retest, primary screen (AID 1117319); TR-FRET GST-Vif / biotin-A3G peptide binding; higher % means a stronger effect; test concentration not given here; strong numbers were not always called active; inhibition, %, or IC50 in µM where a hit was titrated; 260,000 tested, 0.57% active;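 active = above the screen mean plus three standard deviations and confirmed in dose response; inconclusive = results disagree or hit not tested in dose response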;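 note: Vif residues 1-94 fused to GST binding biotinylated APOBEC3G peptide 110-148; 0% = full assay without inhibitor and 100% = GST in place of GST-Vif; retest series ran down from 100 µM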
LANA-H2B inh: blocks KSHV LANA binding to histone H2A/H2B. Q9QR71. cell-free LANA-H2A/H2B peptide, fluorescence polarization. inhibition, % (test concentration not listed). 320,000 tested, 0.6% active; in the data active = inhibition mostly above about 10%, no sharp cut-off; inactive = mostly below about 6.7%;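 note: stock transfer was 7.5 nL into about 10 µL; 0% = median of vehicle wells and 100% = median of positive control wells; one replicate is shown; the record names a cut of 25% in any replicate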
Target sequence (Q9QR71 whole entry, looked up): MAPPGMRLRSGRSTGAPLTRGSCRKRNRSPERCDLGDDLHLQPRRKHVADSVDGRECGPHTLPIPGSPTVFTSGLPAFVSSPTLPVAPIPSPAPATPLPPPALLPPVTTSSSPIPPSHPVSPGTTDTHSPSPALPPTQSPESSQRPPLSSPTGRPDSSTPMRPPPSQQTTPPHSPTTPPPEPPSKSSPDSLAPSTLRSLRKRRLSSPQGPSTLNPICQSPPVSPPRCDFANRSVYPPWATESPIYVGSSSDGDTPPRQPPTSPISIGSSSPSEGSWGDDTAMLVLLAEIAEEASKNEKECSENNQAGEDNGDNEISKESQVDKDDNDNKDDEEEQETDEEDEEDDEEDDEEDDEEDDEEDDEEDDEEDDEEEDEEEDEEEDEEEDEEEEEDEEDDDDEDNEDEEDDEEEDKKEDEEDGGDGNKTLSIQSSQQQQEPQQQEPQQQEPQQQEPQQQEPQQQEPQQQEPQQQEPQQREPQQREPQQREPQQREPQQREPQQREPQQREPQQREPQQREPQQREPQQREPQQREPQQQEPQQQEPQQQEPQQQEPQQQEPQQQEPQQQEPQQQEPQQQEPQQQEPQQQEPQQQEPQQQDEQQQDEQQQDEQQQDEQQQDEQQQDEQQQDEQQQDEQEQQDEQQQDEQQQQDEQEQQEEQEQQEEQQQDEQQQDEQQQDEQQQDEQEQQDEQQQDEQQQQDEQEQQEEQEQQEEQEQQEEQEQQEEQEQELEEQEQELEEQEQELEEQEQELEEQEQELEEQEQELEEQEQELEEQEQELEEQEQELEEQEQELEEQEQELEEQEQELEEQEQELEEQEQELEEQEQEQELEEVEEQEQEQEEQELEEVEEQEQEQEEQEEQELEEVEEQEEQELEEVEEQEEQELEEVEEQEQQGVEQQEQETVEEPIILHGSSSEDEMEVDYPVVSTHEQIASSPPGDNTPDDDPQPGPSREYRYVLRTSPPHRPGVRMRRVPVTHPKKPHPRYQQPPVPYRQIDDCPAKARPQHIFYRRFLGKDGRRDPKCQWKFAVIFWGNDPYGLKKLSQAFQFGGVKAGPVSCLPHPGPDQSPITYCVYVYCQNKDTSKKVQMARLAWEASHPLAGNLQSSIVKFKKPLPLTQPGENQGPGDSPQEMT
HNF4A DNA FP: change in binding of human HNF4 alpha to DNA | HNF4a-FITC DNA binding, fluorescence polarization, 1 h | activity change, % at 10 µM | 360,000 tested, 0.3% active | AID 1224865 | P41235; in the data active = activity change above about 30%, passing the limit was not always enough;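 note: controls were the assay level and a saturating level of protein; the project sought stronger binding though the title names inhibitors; some compounds called inactive have numbers as strong as hits; positive values seem to mean higher polarization but the record does not say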
UCH37 inh: human UCH37 deubiquitinating enzyme inhibition; inhibition, % (no concentration beside the values); 330,000 tested, 0.33% active; purified proteasome/UCH37, Ub-AMC cleavage fluorescence; Q9Y5K5;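 active = mean of two replicates above 20%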;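 note: 0% = compound-free wells with enzyme and 100% = wells lacking proteasome; stock transfer was 100 nL into about 20 µL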
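Material: Human UCH37 enzyme supplied as purified proteasome complex | Schedule: 30 min compound-proteasome preincubation then 25 min substrate reaction, room temperature | Detection: AMC fluorescence from Ub-AMC cleavage, excitation 355 nm, emission 460 nm | Benchmarks: Wells without proteasome as full block, compound-free enzyme plus substrate as uninhibited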
Numbers without * were called inactive; u = inconclusive; x = no result given; & = joins results of further samples.

SMILES | Ecoli growth | A1 inh | B2AR ag | Vif TR-FRET | LANA-H2B inh | HNF4A DNA FP | UCH37 inh
O=C(NC1CCC(O)CC1)c1cc(Cl)c2c(c1)OCCO2 (stereo not drawn) | 0.712 | 0.3 | 2.7 | -5.4% | 3.3 | 0.1 | 1.8
CCc1c(C)nc2ncnn2c1N1CCC(C(=O)NCc2cccs2)CC1 | 0.665 | 0.1 | 3.5 | x | -2.4 | 0.5 | 1.2
COC(=O)/C(=C(O)\C=C\c1ccccc1[N+](=O)[O-])c1nc2ccccc2[nH]1 | 0.632 | 0.4 | -8.9 | x | -7.5 | -0.6 | -0.3
Cc1ccccc1OCC(=O)Nc1ccc(N2CCN(S(C)(=O)=O)CC2)cc1 | 0.716 | 0.2 | -0.7 | 16.7% | 4.3 | 2.9 | -0.2
CCc1ccc(NC(=O)NNC(=O)CCc2ccccc2)cc1 | 0.688 | -0.2 | 3.4 | x | 1.7 | -0.7 | 3.5
COC(=O)c1ccc(CSc2nnc(-c3c[nH]c4ccccc34)n2-c2ccccc2)cc1 | 0.678 | -0.1 | 1.9 | 4.0% | 0.4 | -2.6 | 4.5
O=C(CNC(=O)C1CCCCC1)OC(C(=O)c1ccccc1)c1ccccc1 (stereo not drawn) | 0.636 | 1.7 | 10.2 | x | 5.1 | -0.7 | 4.2
Cc1cc(C)n(C(C)Sc2ccccc2)n1 (stereo not drawn) | 0.681 | 0.0 | -6.4 | x | -0.8 | -2.1 | 2.2
COCCN(CC(=O)Nc1cccc(C)c1C)C(=O)C1(c2ccc(Cl)cc2)CCC1 | 0.682 | 0.7 | 8.1 | x | 3.3 | -2.0 | 2.5
CC(C)(C)NC(=O)c1cc(-c2ccccc2)n[nH]1 | 0.678 | -0.5 | 2.7 | 14.5% | x | 3.8 | 4.6
Cc1nn(CCCC(=O)NCCc2ccccc2)c(C)c1[N+](=O)[O-] | 0.692 | -0.3 | 4.1 | x | 2.8 | 0.9 | 7.2
CC(C#N)Sc1nc2ccccc2c(=O)n1-c1ccccc1 (stereo not drawn) | 0.685 | -0.1 | -7.6 | u | 3.2 | 5.3 | 2.1
Cc1cc(SCC(=O)N/N=C/c2cccnc2)nc2c(C)cccc12 | x | -0.1 | -29.2 | x | 0.1 | -2.9 | x
O=C(COC(=O)Cc1ccccc1F)NC(=O)NC1CCCC1 | 0.696 | 0.4 | -8.3 | x | 2.2 | 0.7 | 0.5
O=C(O)Cn1c(=O)c2c3c(sc2n(Cc2ccccc2F)c1=O)CCCC3 | 0.641 | 1.4 | -3.0 | 1.9% | -0.9 | -2.6 | -1.0
CC1=C(C(=O)OC2CCCCCCC2)C(c2cccc(O)c2)NC(=O)N1 (stereo not drawn) | 0.697 | -0.6 | -8.9 | 1.9% | -1.1 | 1.6 | 2.3
O=C(C1CC(Cl)CN1S(=O)(=O)c1ccc(Cl)cc1)N1CCOCC1 (stereo not drawn) | 0.705 | -0.1 | -7.3 | x | -0.1 | -1.4 | -0.6
Nc1nonc1C(=O)N/N=C/c1cc2c(cc1Br)OCO2 | x | -1.0 | 2.1 | x | -14.4 | -0.7 | x
CCC(NC(=O)c1cc(COc2ccc(Cl)cc2OC)on1)c1ccncc1 (stereo not drawn) | 0.69 | -3.1 | 2.2 | x | -0.6 | 1.8 | 0.4
Cc1ccc(CN2CCN(Cc3ccc4cc(F)ccc4n3)CC2CCO)o1 (stereo not drawn) | 0.697 | 0.6 | -7.4 | x | 3.0 | -0.8 | 5.6
S=c1[nH]nc(-c2ccc(Br)o2)n1Cc1ccccc1 | 0.674 | 0.3 | -2.0 | 32.5% | -1.7 | -1.6 | 1.7
COc1cc(NC(=O)c2cccc3c2C(=O)N(C2CCCCC2)C3)cc(OC)c1OC | 0.669 | 0.2 | 13.7 | 22.2% | 6.2 | -3.8 | 1.7
COc1cc(OC)c2ccc(=O)oc2c1C(CCN1CCCC1)c1ccc2c(c1)OCO2 (stereo not drawn) | 0.686 | -0.4 | -1.3 | x | 12.5 | 1.8 | -3.9
Cc1ccc(OCC(=O)NC2CCCC(C)C2C)c([N+](=O)[O-])n1 (stereo not drawn) | 0.649 | 0.0 | -12.3 | -9.9% | 9.3 | -3.1 | 5.6
O=S1(=O)NC(c2ccccc2)CC(CC2CCCCC2)O1 (stereo not drawn) | x | 0.0 | -7.2 | x | 2.1 | -1.1 | x
CCS(=O)(=O)Nc1ccc(Cc2ccncc2)cc1 | 0.677 | u | -3.6 | 18.2% | -5.9 | -3.1 | 0.5
O=C(NCc1ccc2c(c1)OCO2)C(=O)NC1CCCCC1 | 0.795 | 1.5 | -5.7 | 1.1% | -0.9 | 0.4 | 3.8
CCc1nnc(NC(=O)c2ccc3c(c2)C(=O)N(C(C)(C)C)C3=O)s1 | 0.719 | x | -0.7 | 67.1% | 8.0 | -1.1 | 5.4
Cc1ccc(S(=O)(=O)CC(=O)Nc2sc(C)c(C)c2C(N)=O)cc1 | 0.669 | 0.5 | -16.4 | 1.2% | x | -0.5 | 6.8
CCCCCNS(=O)(=O)c1cc(C)ccc1OC | 0.699 | 0.7 | -1.0 | x | 1.6 | 0.9 | 2.9
ONC(=Nc1ccccc1Cl)c1ccccc1Cl | x | -0.6 | 5.7 | -8.0% | -2.0 | 4.0 | x
Cc1ccc(C(=O)CCC(=O)Nc2cccc(C(F)(F)F)c2)cc1 | 0.746 | 0.0 | -3.8 | -4.2% | -4.6 | -1.8 | -5.7
COc1cc(CNCc2ccccn2)ccc1OCc1ccc(Cl)cc1 | 0.727 | 0.3 | 3.2 | 13.8% | 3.4 | -3.4 | 5.9
Cc1ccccc1OCC(=O)Nc1ccncc1 | 0.6 | 0.8 | 8.0 | x | -1.3 | 4.7 | -0.5
CCOC(=O)c1c(C)[nH]c(C)c1C(=O)CSc1ncccn1 | 0.693 | -0.1 | 3.5 | 2.7% | -4.4 | -2.8 | 3.4
C=CCOc1ccccc1CN1CCCN(C)CC1 | 0.699 | 1.4 | 2.5 | x | 0.6 | 2.2 | 2.1
COc1cccc(NC(=O)CSc2nccn2-c2cccc(OC)c2)c1 | 0.721 | u | 0.0 | -0.1% | -4.8 | -2.2 | 3.0
COc1cc2c(cc1OC)CN(S(=O)(=O)c1cccc(F)c1)CC2 | 0.68 | 0.4 | -1.9 | -10.1% | -3.6 | 3.3 | 3.8
Cc1cccc(NC(=O)c2ccccc2NC(=O)C(C)(C)C)n1 | 0.731 | -0.4 | 3.8 | 0.0% | 2.5 | 0.8 | 3.1
Cc1cccc(NC(=O)c2ccc(Cl)c(S(=O)(=O)N3CCCCCC3)c2)n1 | 0.714 | -0.6 | -1.2 | 0.3% | -1.2 | -2.1 | 3.2

Two entries drawn at random from those above:
SMILES | Ecoli growth | A1 inh | B2AR ag | Vif TR-FRET | LANA-H2B inh | HNF4A DNA FP | UCH37 inh
C=CCOc1ccccc1CN1CCCN(C)CC1 | 0.699 | 1.4 | 2.5 | x | 0.6 | 2.2 | 2.1
COc1cc(CNCc2ccccn2)ccc1OCc1ccc(Cl)cc1 | 0.727 | 0.3 | 3.2 | 13.8% | 3.4 | -3.4 | 5.9

The list goes on:
SMILES | Ecoli growth | A1 inh | B2AR ag | Vif TR-FRET | LANA-H2B inh | HNF4A DNA FP | UCH37 inh
CCCCCN1C2=NCCN2c2ccccc21 | 0.712 | -1.0 | 11.0 | 3.2% | -11.5 | 0.6 | 3.7
COc1ccc(OC)c(Nc2nc(-c3cccs3)cs2)c1 | 0.696 | -0.7 | 1.7 | 3.7% | 3.3 | 2.2 | 2.2
Cc1ccccc1CSc1nn2c(=O)c(C)nnc2s1 | 0.688 | 0.5 | 4.7 | -4.6% | -3.4 | 4.1 | 6.1
O=C(CCCn1c(=O)oc2ccccc21)Nc1cccnc1 | 0.679 | -0.8 | 0.3 | 21.3% | -40.6 | 0.8 | 4.3
CNC(=S)N1N=C(c2ccc(C)cc2)CC1c1cc(OC)ccc1OC (stereo not drawn) | 0.717 | 0.7 | -4.8 | 11.9% | -4.8 | 0.8 | 2.0
CC(OC(=O)CCC(=O)c1ccc(F)cc1)C(=O)NC1CCCCC1C (stereo not drawn) | 0.699 | 0.4 | -2.4 | x | -0.9 | -0.1 | -6.3
CCOC(=O)C1CC(=O)c2cc(OC)c(OC)cc2C1 (stereo not drawn) | 0.626 | 1.5 | 9.9 | 3.1% | 2.3 | -5.4 | -44.5
O=C(Nc1ccccc1C(=O)NCCc1ccc(O)cc1)c1ccco1 | 0.675 | -0.2 | -5.0 | 3.2% | -4.8 | 2.1 | 2.3
O=C(NCc1cccs1)C(=O)c1cn(CC(=O)N2CCOCC2)c2ccccc12 | 0.704 | -0.4 | -5.2 | 1.6% | 2.6 | 4.1 | 7.4
O=[N+]([O-])c1cc([N+](=O)[O-])c(N2CCCCCC2)cc1NCCO | 0.686 | 0.3 | -3.9 | 29.4% | -1.6 | 4.7 | 10.3
C=CCNC(=O)c1onc(CSc2cccc(OC)c2)c1C(=O)NCC=C | 0.672 | 1.0 | -4.5 | 0.9% | 1.8 | -1.1 | 0.9
Clc1ccc(CO/N=C2\CCCc3nonc32)c(Cl)c1 | x | -0.3 | 0.4 | -2.0% | 3.7 | 4.1 | x
N#Cc1c2n(c3c(=O)n(CC(=O)c4ccc(Br)cc4)cnc13)CCCC2 | 0.773 | 0.8 | -6.8 | -12.9% | 6.9 | -2.9 | 0.3
COc1ccc(N2CCN(S(=O)(=O)c3cccc4nsnc34)CC2)cc1 | 0.69 | 1.6 | 2.0 | 0.9% | 2.3 | -2.8 | 8.0
O=C(c1ccccc1)N(Cc1cccc(Br)c1)C1CCS(=O)(=O)C1 (stereo not drawn) | 0.732 | -0.8 | -3.0 | -8.1% | -3.1 | -0.1 | 2.8
COc1ccc(Cl)cc1NC(=O)c1noc2c1CCCC2 | 0.721 | -0.8 | -13.7 | -11.1% | -0.5 | -1.9 | -13.7
O=C(CCCCCNC(=O)c1ccccc1)N/N=C/c1ccc(O)cc1O | x | 0.9 | 23.9 | -5.7% | -3.4 | -0.8 | x
COc1cccc(OC)c1C(=O)Nc1cccc(C(C)=O)c1 | 0.713 | -0.5 | -0.5 | 2.6% | -0.6 | -3.8 | 1.0
NC(=O)c1c(NC(=O)C(=O)N2CCOCC2)sc2c1CCC2 | 0.654 | -1.1 | -6.1 | x | -0.5 | -0.2 | 9.9
O=C(NCc1nnc(SCC(=O)N2CCCCC2)o1)c1ccc(F)cc1 | 0.726 | 1.0 | -0.8 | 5.6% | -7.7 | -0.4 | 0.2
Cc1ccc(C(=O)CSc2nc(C)cc(SCc3nnc(-c4ccccc4)o3)n2)cc1 | 0.749 | -0.2 | -24.9 | -25.0%&-6.3% | 1.4 | 1.1 | 3.0
O=C(NCCCn1ccnc1)C(=O)NCC1OCCCN1S(=O)(=O)c1ccc(Cl)cc1 (stereo not drawn) | 0.672 | -0.7 | 16.2 | -3.2% | 4.1 | -1.4 | 5.6
COC(=O)c1ccccc1NC(=O)CN1CCN(Cc2ccccc2)CC1 | 0.638 | 0.1 | 4.1 | -3.3% | 4.0 | -28.5 | -2.1
COc1ccc(Cl)cc1C(=O)NCCN1CCOCC1 | x | 1.9 | -0.3 | 1.9% | -4.1 | 1.1 | x
COc1ccc(-n2c(N)c(C(=O)NCc3ccco3)c3nc4ccccc4nc32)cc1 | 0.726 | -0.9 | 0.1 | 18.5% | 1.0 | 7.0 | -100.4
CN(C(=O)c1cccc(S(=O)(=O)N2CCCC2)c1)C1CCCCC1 | 0.717 | 2.1 | -10.3 | 10.8% | -2.9 | -0.2 | 3.9
CCCCCCCNC(=O)C1CC(=O)N(C)C(=Nc2ccc(OC)cc2)S1 (stereo not drawn) | 0.681 | 0.3 | -3.2 | 4.1% | -3.3 | -0.6 | 3.3
CC(=O)Nc1nc(COc2ccc3ccccc3c2)cs1 | 0.722 | -4.1 | 1.3 | -5.8% | -2.3 | 1.6 | 2.7
